Marburg entry inh: qHTS for inhibitors of binding or entry into cells for Marburg Virus | Marburg virus pseudotyped entry inhibition, cell reporter; control for the full effect not named in the record; about a third of the inactives were read at about 46 µM | Potency, µM (highest dose often 37.8 µM), for the others: top-dose activity change, negative = inhibition, most hits filed as inhibitors | actives 1.8% (n = 300,000); active = well fitted inhibition curve with a large enough effect; inconclusive = small, poorly fitted or top-dose-only effect, or effect the other way; inactive = flat fitted curve, though single readings scatter; tested in HEK293 cells; about a fifth of its hits are not listed in these tables; note: % is set by controls: 0 for no effect and ±100 for the full control effect; luciferase read-out
StopGo reporter: High Throughput Screening for Foot and Mouth Disease Virus Antivirals. human cells with a luciferase reporter of 2A StopGo recoding; control for the full effect not named in the record. Potency, µM (top dose mostly 57.9 µM), for the others: top-dose signal change, negative = less light. actives 1.2% (n = 410,000). AID 1159524, 2015; active = well fitted falling curve with a large enough effect; inconclusive = small, poorly fitted or top-dose-only effect; inactive = no such curve, though single readings can be large or run the other way; tested in HEK293T cells; note: % is set by controls: 0 for no effect and ±100 for the full control effect; nearly all actives have a fitted effect of over 45% in size; luciferase light after 4 h
Cruzain noTriton: qHTS Assay for Promiscuous and Specific Inhibitors of Cruzain (without detergent). Cruzipain (Trypanosoma cruzi), P25779. purified cruzain, Z-FR-AMC fluorescence, no detergent. Potency, µM, for the others: max response, negative = inhibition, actives largely listed as inhibitors. actives 2.3% (n = 200,000). AID 1476, 2009; active = well fitted curve in the direction sought with a large enough effect; inconclusive = small, poorly fitted or top-dose-only effect, or another doubt; inactive = no such curve, though single readings can be large; an effect the other way counts as inactive or inconclusive;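 note: plate controls were enzyme without inhibitor for no effect and buffer without enzyme for full effect; nearly all actives have a fitted effect of over 40% in size; top concentration of the series not given in the record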
Target sequence (P25779 123-467 limits assumed): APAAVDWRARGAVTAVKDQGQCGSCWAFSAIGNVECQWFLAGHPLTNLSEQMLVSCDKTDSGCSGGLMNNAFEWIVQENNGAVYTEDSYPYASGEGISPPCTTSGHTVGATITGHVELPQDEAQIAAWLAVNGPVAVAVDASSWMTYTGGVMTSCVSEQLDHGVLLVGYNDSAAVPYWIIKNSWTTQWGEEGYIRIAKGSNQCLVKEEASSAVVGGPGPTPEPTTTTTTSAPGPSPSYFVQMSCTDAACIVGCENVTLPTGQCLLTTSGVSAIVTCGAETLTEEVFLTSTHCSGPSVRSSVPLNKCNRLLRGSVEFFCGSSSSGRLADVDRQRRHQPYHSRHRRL
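Purified cruzain at 1.5 nM, pre-incubated 15 min with compound at room temperature in 100 mM sodium acetate pH 5.5, 5 mM DTT, 0.00005% Triton X-100. Reaction started with 2 uM Z-FR-AMC; AMC fluorescence increase over 60 s gives rate.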
LASV entry inh: qHTS for Inhibitors of binding or entry into cells for Lassa Virus | Lassa virus pseudotype entry inhibition, cell reporter; control for the full effect not named in the record | Potency, µM (titrated, usually from 37.9 µM), for inactives: at the top dose activity change, negative = inhibition, actives largely listed as inhibitors | actives 1.2% (n = 300,000); active means well fitted inhibition curve with a large enough effect; inconclusive means small, poorly fitted or top-dose-only effect, or effect the other way; inactive means flat fitted curve, though single readings scatter; tested in HEK293 cells; note: % is set by controls: 0 for no effect and ±100 for the full control effect; nearly all actives have a fitted effect of over 50% in size; luciferase read-out
NS1 inh: qHTS Assay for Inhibitors of Influenza NS1 Protein Function. S. cerevisiae slowed by influenza A NS1, growth recovery by OD600. Potency, µM (doses to about 46.1 µM), without a hit: at the top dose activity, positive = more growth. actives 0.4% (n = 270,000); note: actives are rising curves; nearly all actives have a fitted effect of over 50% in size
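OD600 was taken as the measure of yeast growth restored by compound in an NS1-expressing S. cerevisiae strain. Cells had been washed out of glucose medium and diluted 1:100 into galactose -URA medium, pH 6.0.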
Cruzain Triton: qHTS Assay for Promiscuous and Specific Inhibitors of Cruzain (with detergent); purified cruzain, Z-FR-AMC fluorescence, 0.01% Triton; actives 0.43% (n = 200,000); Potency, µM, inactives show max response, negative = inhibition, hits mostly inhibitors; Cruzipain (Trypanosoma cruzi), P25779; AID 1478, 2009; active = well fitted curve in the direction sought with a large enough effect; inconclusive = small, poorly fitted or top-dose-only effect, or another doubt; inactive = no such curve, though single readings can be large; an effect the other way counts as inactive or inconclusive;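 note: plate controls were neutral wells for no effect and buffer without enzyme for full effect; nearly all actives have a fitted effect of over 40% in size; top concentration of the series not given in the record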
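Detergent-containing arm of a paired screen for aggregation-based inhibition: 0.01% Triton X-100 present. Cruzain at 1.5 nM cleaved 2 uM Z-FR-AMC at pH 5.5 with 5 mM DTT; AMC fluorescence gain over 60 s measured activity.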
RE007 growth inh: qHTS Assay for Inhibitors of the HIV-1 protein Vpr. actives 0.21% (n = 360,000). Potency, µM (titrated, usually from 92.2 µM), for the others: at the highest dose activity change, negative = less growth. S. pombe RE007 Vpr strain, BacTiter-Glo ATP luminescence, 24 h; control for the full effect not named in the record; active = well fitted falling curve with a large enough effect; inconclusive = small, poorly fitted or top-dose-only effect; inactive = no such curve, though single readings can be large or run the other way;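 note: % is set by controls: 0 for no effect and ±100 for the full control effect; nearly all actives have a fitted effect of over 50% in size; the assay follows cell death caused by Vpr and the record does not say whether a fall means rescue or toxicity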
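Fission yeast strain RE007, carrying one chromosomally integrated HIV-1 vpr copy, was seeded at OD 0.01 in PMG+AL medium with 23 nL pinned compound. After 24 h at 30 °C and 99% humidity, viability was read by BacTiter-Glo luminescence.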
SARS PLpro yeast: qHTS of Yeast-based Assay for SARS-CoV PLP; S. cerevisiae expressing SARS-CoV PLpro, growth rescue; control for the full effect not named in the record; Potency, µM (top dose mostly 32.9 µM), inactives show top-dose activity, positive = growth rescue; actives 0.19% (n = 330,000); note: 0% is about no effect; nearly all actives have a fitted effect of over 55% in size; growth read by luminescence after 48 h
Active calls of the source: *; ? = inconclusive; . = no result given; & = joins results of further samples; [ ] = remark or other dose. Unless noted, calls come from the whole dose curve; as a rule, active means well fitted rising curve with a large enough effect; inconclusive means small, poorly fitted or top-dose-only effect; inactive means no such curve, though single readings can be large or run the other way. Potency is the fitted concentration of half-maximal effect. Rows were taken by chance. Share with any hit: about 4.8%.

compound	Marburg entry inh	StopGo reporter	Cruzain noTriton	LASV entry inh	NS1 inh	Cruzain Triton	RE007 growth inh	SARS PLpro yeast
CCOC(=O)CNC(=O)c1cc(OC)cc(OC)c1	13%[46.1 µM]	-15%	.	9%	.	.	12%	8%
Cc1ccc(-c2nc(CN(C)C3CCOCC3)c(C)o2)s1	.	0%	.	.	3%	.	-4%	1%
CN(C)c1ccc(NC(=O)Cn2c(SCc3ccc(F)cc3)nc3ccncc32)cc1	-4%[46.1 µM]	15%	-4%	-26%[46.1 µM]	.	-6.3%	.	.
COc1cc(C2C(C(=O)c3ccc(C)o3)=C(O)C(=O)N2c2cc(C)on2)ccc1OCc1ccccc1 (stereo not given)	.	-28%	.	.	19%	.	3%	3%
CC(=O)NCCc1ccc(C(=O)COC(=O)c2cc(C)oc2C)cc1	?	20%	.	11%[46.1 µM]	.	.	4%	0%
Cn1c(=O)c(C#N)c(-c2ccccc2)n2cnnc12	8%	.	6%	3%	-7%	2.0%	9%	-4%
O=C(NCCc1ccccc1)c1cccnc1	15%[46.1 µM]	42%[activator]	4%	?	-7%	3.0%	-13%	5%
CC1CN(C(=O)COC(=O)c2ccc(F)cc2Cl)CC(C)O1 (stereo not given)	9%[46.1 µM]	-19%	.	8%	-5%	.	-11%	-2%
O=C(CSc1nc(O)cc(=O)n1-c1ccccc1)c1ccc(Br)cc1	0%[46.1 µM]	6%	.	1%[46.1 µM]	?	.	18%	-1%
O=C(c1ccc(-c2ccccc2)cc1)N1CCC(C(=O)N2CCCC2)CC1	-3%	.	?	-4%	-6%	5.8%	1%	3%
CN(C)c1ccc(/C=c2\sc3nc(-c4ccccc4)nn3c2=O)cc1	1%	.	-1%	.	5%	4.6%	.	6%
COc1cccc(C(=O)Nc2cccc(OCc3cc(=O)n4cccc(C)c4n3)c2)c1	.	?	-2%	23%[46.1 µM]	.	2.4%	.	.
COc1cc(N2C(=O)CSC23C(=O)Nc2ccccc23)cc(OC)c1OC (stereo not given)	11%[46.1 µM]	7%	-4%	-18%	-1%	4.9%	-5%	1%
Cc1cccc(/C=N/n2c(C3CCCCC3)n[nH]c2=S)c1	.	-10%	.	.	2%	.	11%	0%
COc1ccc(C)cc1S(=O)(=O)N(C)CC(=O)Nc1ccc2c(c1)OCCO2	5%	.	3%	-32%	-12%	5.9%	-2%	-2%
Cc1nc2c(C(=O)NCCc3ccc(Cl)cc3)cnn2c(C)c1Cc1ccc(F)cc1	.	-24%	-6%	24%[46.1 µM]	.	-3.4%	.	.
Cc1onc(-c2c(Cl)cccc2Cl)c1C(=O)NCCN1CCOCC1	29%	-21%	-13%	-3%	1%	-1.9%	-2%	1%
COc1cc(C(=S)NC2CCCCC2)ccc1O	3%	18%	-3%	4%	-16%	-12%	-4%	-16%
CC(=O)c1cc2c(cc1NC(=O)CCC1CCCC1)OCO2	3%	.	-4%	10%	-8%	-13%	.	2%
Cc1nc2sc(C)c(C)c2c(=O)o1	0%&0%	-9%	-12%	9%	-5%	-0.7%	-12%	0%
O=C1c2[nH]nc(-c3ccccc3O)c2C(c2cccc(O)c2)N1Cc1ccco1 (stereo not given)	0%	-13%	-7%	0.5µM*	12%	-8.0%	-7%	4%
CC(C)c1ccc(Nc2nc(Cl)nc(NCCO)n2)cc1	11%	2%	.	-12%	?	.	-5%	0%
COc1cccc2cc(-c3nnc(SCC(=O)NCc4ccccc4)n3C)oc12	2%	8%	15%	1%	6%	-0.9%	-3%	0%
CCOC(=O)N1CCc2c(sc3c2c(=O)n(Cc2ccccc2)c(=O)n3CC(=O)Nc2cccc(CC)c2)C1	-4%[46.1 µM]	-11%	-17%	0%[46.1 µM]	.	-0.8%	.	.
Cc1nn(-c2cccc(C(F)(F)F)c2)c(=O)c2noc(C)c12	-17%	-9%	.	?	-3%	.	-9%	-1%
O=C(Cn1cnc2cc([N+](=O)[O-])ccc2c1=O)N(Cc1ccccc1)C1CCS(=O)(=O)C1 (stereo not given)	0%	-5%	.	15%	.	.	14%	-3%
CC(C)CCn1c(N2CCCC2)nc2c1c(=O)[nH]c(=O)n2C	.	-3%	.	.	?	.	-6%	11%
CC1(C)Cc2c(C#N)c(N3CCOCC3)nc(Cc3ccccc3)c2CO1	-12%&-12%	?	10%	-25%	-4%	-8.0%	5%	-2%
CC(=O)N1CCCc2cc(S(=O)(=O)N(C)CC(=O)Nc3ccc(C)cc3C)ccc21	.	-28%	7%	-3%[46.1 µM]	.	0.1%	.	.
Cc1noc(/C=C/N(C)C)c1S(=O)(=O)N1CCCC(C(=O)NCc2ccc(F)cc2)C1 (stereo not given)	.	.	-5%	.	?	-5.5%	.	-7%
O=C(NNS(=O)(=O)c1ccc(F)cc1)C1CC(c2cccnc2)=NO1 (stereo not given)	14%[46.1 µM]	7%	.	?	.	.	9%	-2%
COc1ccc(CCN(C)CCC(=O)Nc2ccc(C)cc2)cc1OC	?	-15%	-4%	0%	-8%	0.9%	-1%	-9%
COc1cc(/C=C2/C(=O)NN(c3cccc(Cl)c3)C2=O)cc(Br)c1O	.	?	.	.	-8%	.	-8%	-6%
COc1cccc(NC(=O)c2ccccc2-c2nc(-c3cccc(C)c3)no2)c1	?	10%	-3%	-26%	10%	-4.7%	10%	-16%
CCC(C)c1ccccc1O (stereo not given)	.	-25%	-3%&-1%	.	.	3.3%&1.5%	5%	-3%
Cc1ccc(NC(=O)C(C)N2CCOCC2)c(C(=O)c2ccccc2)c1 (stereo not given)	-4%	-5%	11%	22%	-10%	0.6%	20%	-3%
CN(CC1CCCO1)S(=O)(=O)c1ccc(C(=O)NCc2ccccc2)cc1 (stereo not given)	?	-12%	.	-1%[46.1 µM]	.	.	-2%	-2%
O=c1cc(CSc2ccc([N+](=O)[O-])cc2)nc2sccn12	2%[46.1 µM]	19%	.	11%	.	.	0%	0%
COc1cccc(NC(=O)N2CCc3ccccc3C2)c1	-4%[46.1 µM]	11%	.	-9%[46.1 µM]	-30%	.	-14%	-14%
O=C(CCN=C1NS(=O)(=O)c2ccccc21)NCc1ccccc1F	-4%	13%	.	-7%	.	.	23%	-3%
COCCCNC(=S)N1CCCN(c2nc3c(C)c(C)ccc3cc2C#N)CC1	2%[46.1 µM]	-7%	.	27%[46.1 µM]	5%	.	-13%	0%
COc1ccccc1COC(=O)C(NC(=O)c1ccc(C)cc1)C(C)C (stereo not given)	-18%[46.1 µM]	-16%	.	?	.	.	13%	-3%
O=C(O)Cc1ccc2sc(-c3ccccc3)nc2c1	30%	16%	3%	15%	-29%	-3.8%	5%	-21%
Cc1cc2cc(CN(Cc3cccs3)C(=S)NCc3ccco3)c(=O)[nH]c2cc1C	14µM*	-29%	?	-28%	6%	-5.1%	-6%	20%
CCc1nnc(NS(=O)(=O)c2ccc(NC(=O)CCC(=O)OC)cc2)s1	.	1%	.	.	28%	.	-6%	-4%
Cc1cc(C(=O)Nc2nnc(C3CCCCC3)s2)cs1	?	68%[activator]	?	29%[14.3 µM]	-40%	13%	-8%	-2%
Oc1cc2c(cc1CN1CCc3ccccc3C1)OCO2	0%[46.1 µM]	-19%	.	24%[46.1 µM]	4%	.	3%	6%
O=C(Cc1cccc(C(F)(F)F)c1)NCC(=O)Nc1cc(Cl)ccc1Cl	-8%[46.1 µM]	-10%	.	.	-2%	.	-4%	-1%
COc1ccc(Cc2noc(CN3CCCC(OCc4ccccn4)C3)n2)cc1OC (stereo not given)	2%[46.1 µM]	0%	.	?	-7%	.	-2%	0%
CCCCN(CC)C(=O)c1cc2c(=O)n3ccccc3nc2n1C	.	20%	-9%	-2%[46.1 µM]	.	-2.1%	.	.
Nc1nnc(-c2cn(-c3ccccc3)nc2-c2ccc(Cl)cc2)o1	?	-20%	.	-8%[46.1 µM]	3%	.	-24%	1%
Cc1cc(SC#N)cc(C)c1NC(=O)CCl	-22%	-5%	-16%	-11%	-3%	-13%	18%	.
CCN(C(=O)CCc1nc(-c2ccc(C)cc2)no1)c1cccc(C(F)(F)F)c1	?	-20%	?	-12%[46.1 µM]	.	-12%	.	.
Clc1ccc(-n2ncc3c(NCC4CCCO4)ncnc32)cc1 (stereo not given)	-14%	-39%	-9%	-11%	-69%	-1.9%	-14%	-19%
O=C(Nc1cc(Cl)ccc1Cl)c1cc(S(=O)(=O)N2CCCc3ccccc32)ccc1F	.	-14%	2%	?	.	0.4%	.	.
Fc1cc(Br)ccc1NC(=S)Nc1cccnc1	1%[46.1 µM]	-9%	.	-1%[46.1 µM]	.	.	-19%	1%
Cc1cc(Br)ccc1NC(=O)CN1C(=O)CCC1=O	-2%	0%	10%	-2%	7%	4.3%	26%	4%
CC(=O)N/C(=C\c1ccccc1Cl)C(=O)O	-1%	-19%	-12%	6%	0%	0.9%	18%	6%
Cn1c(=O)c2c(SCC(=O)Nc3ccc4c(c3)OCCO4)nc(CC(C)(C)C)nc2n(C)c1=O	.	-29%	10%	.	7%	1.4%	-1%	-6%
Fc1ccc(C(CCNCc2cccs2)c2ccco2)cc1 (stereo not given)	7.9µM*	62%[activator]	.	-1%	-3%	.	-8%	1%
Cc1ccc(NC(=O)Cn2c(=O)oc3cc(S(=O)(=O)N4CCCC4)ccc32)cc1F	-10%[46.1 µM]	-3%	5%	2%[46.1 µM]	.	-5.4%	.	.
Cc1ccc(-n2c(SCC(=O)NCc3ccccc3)nc3n[nH]c(C)c3c2=N)cc1Cl	.	-18%	4%	?	.	-0.7%	.	.
